Source: PubChem BioAssay (National Center for Advancing Translational Sciences (NCATS))
RE007 growth inh – less growth of the S. pombe RE007 Vpr strain | S. pombe RE007 Vpr strain, BacTiter-Glo ATP luminescence, 24 h; control for the full effect not named in the record | Potency, µM (top dose mostly 92.2 µM), without a hit: at the highest dose activity change, negative = less growth | 360,000 compounds, 0.21% hits | AID 651644; active = well fitted falling curve with a large enough effect; inconclusive = small, poorly fitted or top-dose-only effect; inactive = no such curve, though single readings can be large or run the other way;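 further: on the % scale 0 is the no-effect control and ±100 the full control effect; nearly all actives have a fitted effect of over 50% in size; the assay follows cell death caused by Vpr and the record does not say whether a fall means rescue or toxicity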
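Fission yeast RE007 carrying one integrated HIV-1 vpr copy, seeded at OD 0.01 in PMG+AL medium with 23 nL pinned compound. Grown 24 h at 30 degrees; viability read by BacTiter-Glo luminescence after 5 min.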
Marburg entry inh – inhibitors of Marburg virus binding or cell entry; Marburg virus pseudotyped entry inhibition, cell reporter; control for the full effect not named in the record; about a third of the inactives were read at about 46 µM; Potency, µM (doses to about 37.8 µM), for inactives: top-dose activity change, negative = inhibition, usual class: inhibitors; 300,000 compounds, 1.8% hits; AID 540276; active = well fitted inhibition curve with a large enough effect; inconclusive = small, poorly fitted or top-dose-only effect, or effect the other way; inactive = flat fitted curve, though single readings scatter; tested in HEK293 cells; about a fifth of its hits are not listed in these tables; further: on the % scale 0 is the no-effect control and ±100 the full control effect; luciferase read-out
SARS PLP yeast – inhibitors of SARS-CoV papain-like protease in yeast; Potency, µM (highest dose often 32.9 µM), for the others: top-dose activity, positive = growth rescue; S. cerevisiae expressing SARS-CoV PLpro, growth rescue; control for the full effect not named in the record; 330,000 compounds, 0.19% hits; active means well fitted rising curve with a large enough effect; inconclusive means small, poorly fitted or top-dose-only effect; inactive means no such curve, though single readings can be large or run the other way; further: 0% is about no effect; nearly all actives have a fitted effect of over 55% in size; growth read by luminescence after 48 h
Cruzain Triton – inhibitors of Trypanosoma cruzi cruzain with detergent | P25779 | purified cruzain, Z-FR-AMC fluorescence, 0.01% Triton | AID 1478 | Potency, µM, without a hit: max response, negative = inhibition, usual class: inhibitors | 200,000 compounds, 0.43% hits;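 further: plate controls were neutral wells for no effect and buffer without enzyme for full effect; nearly all actives have a fitted effect of over 40% in size; top concentration of the series not given in the record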
Target sequence (P25779 123-467 limits assumed): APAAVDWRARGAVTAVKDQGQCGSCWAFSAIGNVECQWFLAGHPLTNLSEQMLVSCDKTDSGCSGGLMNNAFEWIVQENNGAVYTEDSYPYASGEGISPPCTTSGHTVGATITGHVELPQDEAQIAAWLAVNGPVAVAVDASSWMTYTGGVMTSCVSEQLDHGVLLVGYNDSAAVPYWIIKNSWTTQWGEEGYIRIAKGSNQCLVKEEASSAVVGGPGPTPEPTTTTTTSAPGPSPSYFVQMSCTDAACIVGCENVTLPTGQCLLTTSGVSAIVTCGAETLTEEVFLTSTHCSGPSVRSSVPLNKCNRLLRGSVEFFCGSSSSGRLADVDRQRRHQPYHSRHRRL
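Z-FR-AMC hydrolysis (2 uM substrate) by cruzain (1.5 nM) monitored kinetically at ex 360/em 450 nm after 15 min room-temperature compound exposure; 0.01% Triton X-100, pH 5.5, 5 mM DTT.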
LASV entry inh – Lassa virus entry inhibition | 300,000 compounds, 1.2% hits | AID 540256 | Lassa virus pseudotype entry inhibition, cell reporter; control for the full effect not named in the record | Potency, µM (top dose mostly 37.9 µM), without a hit: at the highest dose activity change, negative = inhibition, actives largely listed as inhibitors; active means well fitted inhibition curve with a large enough effect; inconclusive means small, poorly fitted or top-dose-only effect, or effect the other way; inactive means flat fitted curve, though single readings scatter; tested in HEK293 cells; further: on the % scale 0 is the no-effect control and ±100 the full control effect; nearly all actives have a fitted effect of over 50% in size; luciferase read-out
NS1 inh – influenza NS1 inhibition | 270,000 compounds, 0.4% hits | S. cerevisiae slowed by influenza A NS1, growth recovery by OD600 | Potency, µM (series often up to 46.1 µM), for inactives: at the top dose activity, positive = more growth | AID 2326; active means well fitted rising curve with a large enough effect; inconclusive means small, poorly fitted or top-dose-only effect; inactive means no such curve, though single readings can be large or run the other way; further: nearly all actives have a fitted effect of over 50% in size
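OD600 was taken as the measure of yeast growth restored by compound in an NS1-expressing S. cerevisiae strain. Cells had been washed out of glucose medium and diluted 1:100 into galactose -URA medium, pH 6.0.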
Cruzain inh noDet – inhibitors of Trypanosoma cruzi cruzain without detergent | Potency, µM, for inactives: max response, negative = inhibition, hits mostly inhibitors | P25779 | purified cruzain, Z-FR-AMC fluorescence, no detergent | 200,000 compounds, 2.3% hits;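 further: plate controls were enzyme without inhibitor for no effect and buffer without enzyme for full effect; nearly all actives have a fitted effect of over 40% in size; top concentration of the series not given in the record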
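Detergent-free condition (0.00005% Triton X-100) in acetate buffer pH 5.5 with DTT. 1.5 nM enzyme and compound were pre-mixed 15 min, then 2 uM Z-FR-AMC substrate added; reaction progress from fluorescence change between first and third reads (60 s).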
2A StopGo – FMDV 2A StopGo reporter, luciferase signal | human cells with a luciferase reporter of 2A StopGo recoding; control for the full effect not named in the record | Potency, µM (series often up to 57.9 µM), without a hit: at the top dose signal change, negative = less light | 410,000 compounds, 1.2% hits; active = well fitted falling curve with a large enough effect; inconclusive = small, poorly fitted or top-dose-only effect; inactive = no such curve, though single readings can be large or run the other way; tested in HEK293T cells; further: on the % scale 0 is the no-effect control and ±100 the full control effect; nearly all actives have a fitted effect of over 45% in size; luciferase light after 4 h
* marks the source's active call; other numbers are inactive results; u = inconclusive; x = not tested or not shown; & = joins results of further samples; [ ] = dose if it differs, or a comment. Unless noted, the call rests on the fitted dose curve; in most records, active means well fitted curve in the direction sought with a large enough effect; inconclusive means small, poorly fitted or top-dose-only effect, or another doubt; inactive means no such curve, though single readings can be large; an effect the other way counts as inactive or inconclusive. Potency means the concentration at half of the fitted maximal effect.

SMILES | RE007 growth inh | Marburg entry inh | SARS PLP yeast | Cruzain Triton | LASV entry inh | NS1 inh | Cruzain inh noDet | 2A StopGo
Nc1nc(N)nc(-c2ccc(Oc3ccccc3)cc2)n1 | 3% | -3% | -39% | -5.5% | 3% | -169% | -3% | x
COc1ccc(C2/C(=C(/O)c3ccccc3)C(=O)C(=O)N2C)cc1OC (stereo unspecified) | 6% | x | 11% | x | x | 25% | x | -3%
Cc1cc2c(NC(=O)CC(C)(C)CC(=O)O)cccc2nn1 | -8% | x | 2% | x | x | 0% | x | 3%
Cc1cc([N+](=O)[O-])ccc1NC(=O)CSc1nncn1-c1ccccn1 | -6% | -13%[46.1 µM] | 2% | x | 3%[46.1 µM] | 14% | x | 6%
O=C(Nc1cccc2ccccc12)C12CC3CC(C1)CC(n1cnc([N+](=O)[O-])n1)(C3)C2 | -12% | u | 4% | 1.9% | u | 0% | 1% | u
CCCOc1ccc(C2c3c(oc4ccccc4c3=O)C(=O)N2c2nc(C)c(C(=O)OCC)s2)cc1 (stereo unspecified) | x | 7%[46.1 µM] | x | -1.0% | 23%[46.1 µM] | x | 17% | -12%
CCOc1ccc(NC(=O)c2ccc(N3CC4CC(C3)c3cccc(=O)n3C4)c(NC(=O)CCN3CCOCC3)c2)cc1 (stereo unspecified) | 2% | x | 12% | x | x | -23% | x | 7%
C[C@]12C=CC(=O)C=C1CC[C@@H]1C2C(O)C[C@@]2(C)C1CC[C@]2(O)C(=O)COC(=O)CCC(=O)NC(CC(=O)O)C(=O)O (stereo partly specified) | 2% | x | 2% | x | x | 3% | x | 1%
CCCCCn1c(=O)c2ccccc2n2c(CCl)nnc12 | 8% | -14%[14.2 µM] | -3% | x | -8% | -3% | x | 20µM*
CN(C)S(=O)(=O)c1ccc(NC(=O)CSc2ncnc3ccccc23)cc1 | -3% | 9% | -21% | -5.2% | 2% | -1% | 4% | 0%
NC(=O)c1cc2cc(Cl)ccc2o/c1=N/NC(=O)c1cccs1 | -13% | 2% | 0% | x | u | 2% | x | 16%
CC(C)OC(=O)C1C(=O)CC(C)(O)C(C(=O)OC(C)C)C1c1cccc(O)c1 (stereo unspecified) | -1% | -18%&-18% | 0% | 3.6% | 7% | -5% | 6% | -8%
CC(C)CCNC(=O)CCn1c(=S)oc2ccccc21 | 8% | u | -2% | x | 13%[46.1 µM] | x | x | 5%
COc1ccc(-c2nn(-c3ccc(C)c(Cl)c3)c3c2cnc2cc(OC)c(OC)cc23)cc1 | x | x | x | 0.8% | 15%[46.1 µM] | x | -2% | -6%
COc1ccc(C(Nc2ccccn2)c2c(NC(=O)c3ccco3)sc(C)c2C)cc1 (stereo unspecified) | -2% | -29% | -61% | -1.2% | 18% | 11% | 5% | 2%
[O-][n+]1onc2c1CCC1N(O)CCC21O (stereo unspecified) | 5% | 0% | -8% | 2.7% | 9% | -15% | -4% | 12%
COc1ccc(-c2csc3nc[nH]c(=O)c23)cc1 | 15% | -2%[46.1 µM] | -2% | x | 6% | x | x | 8%
Cc1cc(C)c(NC(=O)Cn2c(=O)n(Cc3ccc(C(=O)NCc4ccc5c(c4)OCO5)cc3)c(=O)c3ccccc32)c(C)c1 | x | -10%[46.1 µM] | x | -1.5% | u | x | 4% | -17%
COc1ccc(C(C#N)Nc2ccccc2OC)cc1 (stereo unspecified) | 0% | 6% | 0% | 2.8% | 7% | 3% | -6% | -14%
Cc1cc(SCC(=O)NN)c2cc(Br)ccc2n1 | -5% | -10%[46.1 µM] | 1% | x | u | -11% | x | 27%

Record cards (already shown):
Shown for `COc1ccc(-c2csc3nc[nH]c(=O)c23)cc1` → RE007 growth inh: 15%; Marburg entry inh: -2%[46.1 µM]; SARS PLP yeast: -2%; Cruzain Triton: x; LASV entry inh: 6%; NS1 inh: x; Cruzain inh noDet: x; 2A StopGo: 8%
Shown for `[O-][n+]1onc2c1CCC1N(O)CCC21O` (stereo unspecified) → RE007 growth inh: 5%; Marburg entry inh: 0%; SARS PLP yeast: -8%; Cruzain Triton: 2.7%; LASV entry inh: 9%; NS1 inh: -15%; Cruzain inh noDet: -4%; 2A StopGo: 12%

The listing continues:
SMILES | RE007 growth inh | Marburg entry inh | SARS PLP yeast | Cruzain Triton | LASV entry inh | NS1 inh | Cruzain inh noDet | 2A StopGo
CCc1nc(SCC(=O)N2CCCCCC2)c2c(=O)n(C)c(=O)n(C)c2n1 | 7% | x | -2% | x | x | 12% | x | -27%
Cc1c(C(=O)N2CCC(C)CC2)c(S(=O)(=O)Nc2ccc(OC(F)(F)F)cc2)c(C)n1C | x | x | x | -7.6% | -23%[46.1 µM] | x | u | 6%
CCSc1ccccc1C(=O)Nc1nc2ccccc2c(=O)[nH]1 | u | u | -1% | x | -25% | -15% | x | -17%
CC1(C)CC(=O)c2cc(N=C/C(C(=O)c3ccccc3)=C(\O)c3ccccc3)c(=O)oc2C1 | -12% | 16% | -1% | x | 1% | -5% | x | 21%
O=P(Cc1ccccc1)(c1ccccc1)c1ccccc1 | 7% | 3% | 21% | 2.8% | 0% | -1% | 6% | -5%
COc1ccc(C)cc1NC(=O)CSc1nnc(-c2cc(C)[nH]n2)n1N | 3% | 11%[46.1 µM] | 1% | x | 6%[46.1 µM] | 16% | x | 14%
CCC(C)(C)NC(=O)C(OC(=O)c1ccco1)c1ccc(OC)cc1 (stereo unspecified) | -11% | x | 0% | x | x | -7% | x | -15%
CCCCN(CCCC)CCCNC(=O)C1CC(c2ccc(C(F)(F)F)cc2)=NO1 (stereo unspecified) | -14% | x | -2% | x | x | 2% | x | -30%
CC(C)C(NC(=O)c1ccc(S(=O)(=O)N2CCOCC2)cc1)c1nc2ccccc2[nH]1 (stereo unspecified) | 3% | -2%&-2% | 4% | 3.1% | -1% | 1% | u | -24%
O=C(Nc1ccccc1)NC1CCN(CCCN2C(=O)c3ccccc3C2=O)CC1 | -12% | 5%&2% | -1% | -1.4% | 16% | -3% | -11% | x
CCCNC(=O)c1ccccc1NC(=O)Cc1ccc(OC)c(S(=O)(=O)N2CCOCC2)c1 | 7% | u | 0% | x | u | x | x | 2%
CCOc1ccc(-n2nc(C(=O)NC3CCCCC3)c3ccccc3c2=O)cc1 | -4% | x | 0% | x | x | 2% | x | -3%
CC(=O)c1ccc2c(c1)C1C=CCC1C(C(=O)O)N2 (stereo unspecified) | -1% | u | 0% | x | 2%[46.1 µM] | 14% | x | -33%
CCOc1ccc(N2C(=O)/C(=C/c3ccccn3)SC2=S)cc1 | -4% | 1% | -1% | x | 11% | 3% | x | -4%
Cc1cc2oc(=O)cc(-c3cc4ccccc4o3)c2cc1OC(=O)N(C)C | -16% | 3%[46.1 µM] | -1% | x | -23%[46.1 µM] | 5% | x | -28%
O=[N+]([O-])c1ccc(/C=N/Nc2nc(N3CCCCC3)nc(N3CCCCC3)n2)cc1 | -13% | x | 0% | x | x | 7% | x | 3%
N#CC1=C(N)Oc2cc(N)ccc2C1c1ccc(F)cc1 (stereo unspecified) | 22% | u | 4% | -8.0% | -27% | 22% | -9% | -10%
COc1ccc(C)cc1S(=O)(=O)N1CCOCC1 | -1% | 20%[46.1 µM] | 0% | x | 1% | 1% | x | -1%
CCn1cc(C(=O)OC(C)C(=O)Nc2c(C)n(C)n(-c3ccccc3)c2=O)c(=O)c2ccc(C)nc21 (stereo unspecified) | 9% | 29% | -1% | 2.8% | -17% | -25% | -4% | -22%
CCC(C)C(NC(=O)c1ccc(Cl)cc1)C(=O)O (stereo unspecified) | 1% | -17% | 1% | 5.8% | 11% | -6% | -10% | -4%
Cc1cc(C)n(-c2ccc(NC(=O)C3CCN(Cc4ccccn4)CC3)cc2)n1 | 1% | -4%[46.1 µM] | 4% | x | 3%[46.1 µM] | 13% | x | 15%
O=C(NCc1ccc(F)cc1)C1CCC(=O)N1C1CCCCC1 (stereo unspecified) | 17% | 2% | 6% | 1.8% | 21% | -9% | 3% | 18%
O=C1CC(c2ccccc2)CC(O)=C1C=NCCN1CCNCC1 (stereo unspecified) | 3% | 2% | 4% | 1.0% | u | -10% | -8% | 0%
COc1ccc(-c2ccc(SCC(=O)NCC3CCCO3)nn2)cc1OC (stereo unspecified) | 2% | 8%&8% | 1% | x | -11% | 4% | x | 26%
CCCCSC1(SCCCC)N=C(N)C2(C#N)C(c3ccccc3)NC(C)=CC12C#N (stereo unspecified) | u | -36% | 6% | 0.7% | 6% | -3% | 1% | -24%
CC(=O)c1cccc(NC(=O)C2CCN(C(=O)c3cccs3)CC2)c1 | -11% | -3%[46.1 µM] | -1% | x | x | 0% | x | -3%
COC(=O)c1cn(C(=O)c2cccs2)c2ccccc12 | -26% | u | -24% | -5.8% | -3% | -60% | 5% | -20%
Nc1c(C(=O)Nc2ccc(S(=O)(=O)N3CCCC3)cc2)sc2nc3cc4c(cc3cc12)CCC4 | 2% | u | 1% | 4.6% | u | 6% | -16% | 26%
CC1CCCC(C)N1C(=O)COc1ccc(C(=O)N/N=C/c2ccc(C(=O)O)cc2)cc1 (stereo unspecified) | -11% | -7%[46.1 µM] | -2% | x | 1%[46.1 µM] | x | x | -1%
CNS(=O)(=O)c1ccc(NC(=O)C(CCSC)NC(N)=O)cc1 (stereo unspecified) | -9% | -2% | -1% | 2.8% | 2% | 0% | 4% | 13%
CC1(C)N(O)C2CCCCC2N1O (stereo unspecified) | 7% | u | -8% | 5.2% | 5% | 1% | 5% | -4%
COc1ccc(C2CC(c3ccc(OC)cc3)n3nc(N)nc3N2)cc1 (stereo unspecified) | 1% | x | -3% | 1.6% | x | u | -5% | -1%
COc1ccccc1CCNC1CCC(C)CC1 (stereo unspecified) | -1% | u | u | 0.6% | -8% | -9% | -1% | -20%
CC1(C)COC(c2coc3ccccc3c2=O)OC1 | -15% | u | -12% | -1.2% | 26% | 3% | -2% | 33%[activator]

Random draw from the library (roughly 4.7% active in at least one column).
